Assay outcomes deposited in PubChem BioAssay by several laboratories.
MT1-MMP act inh – blockers of MT1-MMP proenzyme processing, primary screen, HT1080 RFP-PRO-GFP cells, GFP/RFP fluorescence | Matrix metalloproteinase-14 (Homo sapiens), P50281 | GFP/RFP ratio fluorescence, overnight; percent of plate control window, DMSO zero | GFP/RFP ratio change, % at 20 µM | 360,000 compounds, 0.061% hits | AID 651647, 2012;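 active means GFP/RFP ratio change of at least 30% with cell ATP level not reduced by more than half and red fluorescence within 50% of control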; further: strong numbers were not always called active
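Assay system: HT1080 cells carrying an RFP-PRO-GFP reporter | Dosing: Single dose of 20 µM compound, 1% DMSO final | Incubation: Cells overnight before dosing, compound overnight, 37 °C, 5% CO2 | Evaluation: GFP/RFP fluorescence ratio | Control set: DMSO and RFP-L50D-GFP cell wells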
Env fusion inh – inhibitors of HIV-1 Env-driven cell-cell fusion, primary screen, HeLa-JRFL effector, CEM21 target cells, luciferase. inhibition, % at 12.3 µM. 360,000 compounds, 1.1% hits;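 active means mean replicate inhibition score of at least 50 and every replicate individually at or above 50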;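 further: 0% = plate neutral controls and 100% = maraviroc near 300 nM; one replicate is shown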
MT1-MMP act inh RFP – also measured in MT1-MMP act inh; calls as there; RFP signal change, %; measured here: RFP expression control read;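 0 = vehicle wells; hits needed this value within 50% of zero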
An asterisk follows results filed as active. The list is partial; the hit share may differ from the screen's.

| smiles | MT1-MMP act inh | MT1-MMP act inh RFP | Env fusion inh |
| --- | --- | --- | --- |
| COc1cc(/C=C/c2ccc(/C=C/c3cc(OC)c(OC)c(OC)c3)cc2)cc(OC)c1OC | 6 | -1 | -91 |
| Cc1ccsc1CN(C)CC(=O)Nc1cccc(S(=O)(=O)N(C)c2ccccc2)c1 | -7 | -6 | 6 |
| CCCCNC(=O)C[C@@H]1C[C@@]2(C(=O)OC)CC(C)(C)CC=C2N(Cc2ccco2)C1=O | -2 | -1 | 5 |
| CCCCNC(=O)C[C@@H]1C[C@@]2(C(=O)OC)CCCCC=C2N(CCc2ccc(OC)c(OC)c2)C1=O | 2 | 3 | -7 |
| COC(=O)[C@@]12C[C@@H](CC(=O)NCc3ccc(OC)c(OC)c3)C(=O)N(Cc3ccco3)C1=CCC(C)(C)C2 | 6 | 3 | 7 |
| CCCc1nc2ccccc2n1C(C(=O)NC(C)(C)C)C1CC1 (configuration not stated) | 2 | 9 | -4 |
| Cc1cccc(COC[C@H](CC(C)C)N2CCN(C(=O)c3ccc(C(F)(F)F)cc3)CCC2=O)c1 | -6 | -13 | 42 |
| COC(=O)[C@@]1(Cc2ccc(F)cc2)[C@H]2c3cc(C(=O)N4CCCC4)n(Cc4ccc(S(C)(=O)=O)cc4)c3C[C@H]2CN1C(=O)c1ccccc1 | -4 | -7 | -23 |
| COc1ccccc1C(C(=O)c1ccccc1)c1ccc2ccccc2c1 (configuration not stated) | -5 | 5 | 27 |
| C=C1C(=O)OC2CC1C(O)CC(C)=CCCC(C)=CC(O)CC2C (configuration not stated) | -10 | -26 | 23 |
| CC1(C(=O)NCc2ccccc2)CN(S(C)(=O)=O)CC(=O)N1CCCN1CCOCC1 (configuration not stated) | 0 | 5 | -16 |
| O=C(NCc1cccc(C(F)(F)F)c1)C1C(=O)Nc2ccccc2C(=O)N1Cc1ccccc1 (configuration not stated) | 4 | 0 | 36 |
| COc1ccc(N2C(=O)c3ccccc3NC(=O)C2C(=O)Nc2ccc3c(c2)OCCO3)cc1 (configuration not stated) | 0 | 3 | 20 |
| COc1cc(OC)cc(C2=Cc3ccc(OC)cc3C(CC(C)=O)N2c2ccc(C#CC3(O)CCCCC3)cc2)c1 (configuration not stated) | -7 | -6 | 1 |
| CCOC(=O)N1CCN(C(=O)C[C@@H]2C[C@@]3(C(=O)OC)CC(C)(C)CC=C3N(Cc3ccco3)C2=O)CC1 | 2 | 6 | -2 |
| CC1(C)SC(C)(C)N(C=O)C1C(=O)O (configuration not stated) | -4 | -4 | 3 |

Fetched by structure from above, 4 records:
| smiles | MT1-MMP act inh | MT1-MMP act inh RFP | Env fusion inh |
| --- | --- | --- | --- |
| C=C1C(=O)OC2CC1C(O)CC(C)=CCCC(C)=CC(O)CC2C (configuration not stated) | -10 | -26 | 23 |
| CCOC(=O)N1CCN(C(=O)C[C@@H]2C[C@@]3(C(=O)OC)CC(C)(C)CC=C3N(Cc3ccco3)C2=O)CC1 | 2 | 6 | -2 |
| COc1ccc(N2C(=O)c3ccccc3NC(=O)C2C(=O)Nc2ccc3c(c2)OCCO3)cc1 (configuration not stated) | 0 | 3 | 20 |
| CC1(C(=O)NCc2ccccc2)CN(S(C)(=O)=O)CC(=O)N1CCCN1CCOCC1 (configuration not stated) | 0 | 5 | -16 |

Only MT1-MMP act inh and Env fusion inh (3 entries from above):
molecule,MT1-MMP act inh,Env fusion inh
CC1(C(=O)NCc2ccccc2)CN(S(C)(=O)=O)CC(=O)N1CCCN1CCOCC1 (configuration not stated),0,-16
O=C(NCc1cccc(C(F)(F)F)c1)C1C(=O)Nc2ccccc2C(=O)N1Cc1ccccc1 (configuration not stated),4,36
COc1ccc(N2C(=O)c3ccccc3NC(=O)C2C(=O)Nc2ccc3c(c2)OCCO3)cc1 (configuration not stated),0,20

More structures
| smiles | MT1-MMP act inh | MT1-MMP act inh RFP | Env fusion inh |
| --- | --- | --- | --- |
| O=C(NCCCn1ccnc1)C1CCN(S(=O)(=O)c2cc([N+](=O)[O-])ccc2Cl)CC1 | 2 | 1 | -2 |
| Oc1ccccc1-c1cnc2cccnn12 | -9 | -4 | -24 |
| O=C(NCc1ccccc1Cl)[C@H]1CCCN1C(=O)[C@H]1CCCN1C(=O)c1cccc2ccccc12 | 8 | 0 | 15 |
| CCCCNC(=O)C(NC(=O)c1cccnc1OC)C(=O)c1ccccc1 (configuration not stated) | -2 | 3 | -42 |
| COc1ccc([C@H]2CC(=O)C[C@@H](CCn3cc(-c4ccc(F)cc4)nn3)O2)cc1 | 5 | 3 | 4 |
| N#CC(=Cc1ccc(-c2ccccc2)cc1)C(=O)c1ccccc1 | -2 | 3 | -65 |
| CC(C)c1cc(C(C)C)c(S(=O)(=O)NC(c2ccccn2)C23CC2C3)c(C(C)C)c1 (configuration not stated) | -2 | -2 | 13 |
| Cc1ccccc1N=C(c1ccccc1)C1C(=O)c2ccccc2C1=O | -6 | -11 | -16 |
| CCC1(C2C=COC=C2)NC(=O)NC1=O (configuration not stated) | 6 | 4 | -46 |
| O=C1O[C@@H](c2ccccc2)C[C@@H](O)C(=O)CCCc2ccccc21 | 4 | 1 | 15 |
| CCOC(=O)C1(C(=O)OCC)C(C)CC(=O)N1c1ccccc1OC (configuration not stated) | -8 | 2 | 10 |
| CCOC(=O)[C@]12CCCC=C1N(Cc1ccc(Cl)cc1Cl)C(=O)[C@H](CC(=O)N1CCCCC1)C2 | -8 | -14 | -44 |
| O=C(Nc1ccccc1Cl)O/N=C/c1ccc(F)cc1 | 0 | -3 | -3 |
| CN(C)CCN(Cc1ccccc1)C(c1ccnc2ccccc12)c1nnnn1-c1ccc2c(c1)OCCO2 (configuration not stated) | 2 | -1 | -114 |
| COC(=O)[C@@]12C[C@@H](CC(=O)N3CCSCC3)C(=O)N(Cc3ccc4c(c3)OCO4)C1=CCC(C)(C)C2 | 6 | 3 | 20 |
| COc1ccc(-n2nnnc2C2c3ccccc3C(=O)N2C2CCN(Cc3ccccc3)CC2)cc1 (configuration not stated) | 1 | 5 | -35 |

Compound profiles, from the list above:
CN(C)CCN(Cc1ccccc1)C(c1ccnc2ccccc12)c1nnnn1-c1ccc2c(c1)OCCO2 (configuration not stated) as listed: MT1-MMP act inh: 2; MT1-MMP act inh RFP: -1; Env fusion inh: -114
CCOC(=O)C1(C(=O)OCC)C(C)CC(=O)N1c1ccccc1OC (configuration not stated) as listed: MT1-MMP act inh: -8; MT1-MMP act inh RFP: 2; Env fusion inh: 10
O=C1O[C@@H](c2ccccc2)C[C@@H](O)C(=O)CCCc2ccccc21 as listed: MT1-MMP act inh: 4; MT1-MMP act inh RFP: 1; Env fusion inh: 15

Carrying on.
| smiles | MT1-MMP act inh | MT1-MMP act inh RFP | Env fusion inh |
| --- | --- | --- | --- |
| O=C(O)c1cccc(S(=O)(=O)N2CCN(S(=O)(=O)c3ccc4ccccc4c3)CC2)c1 | 5 | 5 | 25 |
| COC(=O)c1ccc2c(c1)S(=O)(=O)NC2C (configuration not stated) | 3 | 5 | 13 |
| CCc1nc2ccc(C(=O)N(C)CC(=O)Nc3ccccc3C(F)(F)F)cc2nc1CC | 4 | 1 | 4 |
| CCOC(=O)N1CCN(C(=O)C2CCCN(c3ncnc4c3sc3cccc(F)c34)C2)CC1 (configuration not stated) | -1 | -20 | 7 |
| CCCCOC(=O)NC1CCc2cc(OC)c(OC)c(OC)c2-c2ccc(SC)c(=O)cc21 (configuration not stated) | 28 | 4 | -24 |
| O=C(NCc1ccccc1)C1C(=O)Nc2ccccc2C(=O)N1C1CCCC1 (configuration not stated) | 3 | 6 | 39 |
| CCCCNC(=O)C1c2ccccc2OCC(=O)N1C1CC1 (configuration not stated) | 1 | 3 | -43 |
| COc1ccc(NS(=O)(=O)c2ccc3c(c2)CCC(=O)N3)cc1O | 2 | 5 | 7 |

Individual results from the entries so far.
O=C(NCc1ccccc1)C1C(=O)Nc2ccccc2C(=O)N1C1CCCC1 (configuration not stated) @ MT1-MMP act inh RFP = 6
CCCCOC(=O)NC1CCc2cc(OC)c(OC)c(OC)c2-c2ccc(SC)c(=O)cc21 (configuration not stated) @ MT1-MMP act inh = 28

Next part.
Cc1cc2nc[nH]c(=O)n2n1
- MT1-MMP act inh: 6
- MT1-MMP act inh RFP: -1
- Env fusion inh: -7

CC(C)C(C(=O)NC1CCCC1)N1CCC(O)(c2ccc(Cl)cc2)CC1 (configuration not stated)
- MT1-MMP act inh: -1
- MT1-MMP act inh RFP: 3
- Env fusion inh: 4

COc1cc(CN2C[C@@H](CO)O[C@@H](n3cnc4c(NCCCO)ncnc43)C2)cc(OC)c1OC
- MT1-MMP act inh: 3
- MT1-MMP act inh RFP: 7
- Env fusion inh: -5

CSCCC(C(=O)NC1CCCC1)n1c(C2CCCC2)nc2ccccc21 (configuration not stated)
- MT1-MMP act inh: -1
- MT1-MMP act inh RFP: 6
- Env fusion inh: -10

Cn1c(=O)c2c(nc(C(O)c3ccccc3)n2C)n(C)c1=O (configuration not stated)
- MT1-MMP act inh: 0
- MT1-MMP act inh RFP: 3
- Env fusion inh: -11

O=C(OCCC12CC3CC(CC(C3)C1)C2)c1ccc(NCc2cc(O)ccc2O)cc1
- MT1-MMP act inh: -49
- MT1-MMP act inh RFP: -26
- Env fusion inh: 20

CC(C)C[C@H]1CNC(=O)C(=O)N1C[C@@H]1CCCN1C[C@H](Cc1ccc(O)cc1)N1C[C@H](Cc2ccccc2)N(CC2CCCCC2)C(=O)C1=O
- MT1-MMP act inh: -3
- MT1-MMP act inh RFP: 1
- Env fusion inh: -51

COC(=O)c1ccc2nc(-c3ccc(F)cc3)c(Cc3ccccc3C(F)(F)F)n2c1
- MT1-MMP act inh: -4
- MT1-MMP act inh RFP: -2
- Env fusion inh: 15

CC1=C(C(=O)N2CCCCCC2)CC(CC(=O)NCCN2CCOCC2)C(=O)N1Cc1ccc(C(C)(C)C)cc1 (configuration not stated)
- MT1-MMP act inh: 6
- MT1-MMP act inh RFP: 6
- Env fusion inh: -3

CC1(C)OC(=O)C2=C(C[C@@H](CCc3ccccc3)O[C@@H]2c2ccc(F)cc2)O1
- MT1-MMP act inh: 0
- MT1-MMP act inh RFP: -4
- Env fusion inh: 2

CC(C)(C)n1nnnc1C(c1cc2ccccc2o1)N1CCOCC1 (configuration not stated)
- MT1-MMP act inh: -3
- MT1-MMP act inh RFP: 1
- Env fusion inh: 9

CC(=O)c1ccc(S(=O)(=O)Nc2ccc(C(=O)N3CCC3)cc2)cc1
- MT1-MMP act inh: 3
- MT1-MMP act inh RFP: 0
- Env fusion inh: -6

COc1ccc(-c2cc3nc(NCCCN(C)C)n(C)c(=O)c3s2)cc1OC
- MT1-MMP act inh: 6
- MT1-MMP act inh RFP: 3
- Env fusion inh: -16

CCOc1ccc(CCN2C(=O)C(=O)N([C@@H](CC(C)C)CN3CCC[C@H]3CN3C(=O)C(=O)NC[C@@H]3Cc3ccccc3)C[C@@H]2Cc2ccccc2)cc1
- MT1-MMP act inh: 3
- MT1-MMP act inh RFP: -11
- Env fusion inh: -146

Nc1nc(N)nc(-c2cccc(Br)c2)n1
- MT1-MMP act inh: -6
- MT1-MMP act inh RFP: 0
- Env fusion inh: -9

Cc1cc(-c2nc3ccccc3s2)ccc1N
- MT1-MMP act inh: -1
- MT1-MMP act inh RFP: -2
- Env fusion inh: -206

CCCCn1nnnc1C(c1cc2ccccc2o1)N(C)CCc1ccccc1 (configuration not stated)
- MT1-MMP act inh: -4
- MT1-MMP act inh RFP: -12
- Env fusion inh: 38

CC1(C(=O)NCc2ccccc2)CSCC(=O)N1Cc1cccc(F)c1 (configuration not stated)
- MT1-MMP act inh: 3
- MT1-MMP act inh RFP: 4
- Env fusion inh: 10

COC(=O)C[C@H]1C=C[C@@H](NC(=O)Nc2cccc(OC)c2)[C@@H](CO)O1
- MT1-MMP act inh: -2
- MT1-MMP act inh RFP: 1
- Env fusion inh: -40

N#Cc1cccc(C(=O)OCc2cccc(S(=O)(=O)N3CCOCC3)c2)c1
- MT1-MMP act inh: -5
- MT1-MMP act inh RFP: -1
- Env fusion inh: -2

COc1ccccc1C=C(C(=O)c1ccccc1)c1ccccc1
- MT1-MMP act inh: 1
- MT1-MMP act inh RFP: -4
- Env fusion inh: 10

COc1ccc(C(=O)C(=O)N2CCN(C(=O)OCc3ccccc3)CC2)cc1
- MT1-MMP act inh: 0
- MT1-MMP act inh RFP: -1
- Env fusion inh: -19

O=C(OCc1cn([C@@H]2C[C@H](c3ccc(Cl)cc3)N(C(=O)C3CCCCC3)C[C@H]2O)nn1)c1ccccc1
- MT1-MMP act inh: 0
- MT1-MMP act inh RFP: -11
- Env fusion inh: 1

COP(=O)(OC)c1ccc(NCc2cc(O)ccc2O)cc1
- MT1-MMP act inh: -24
- MT1-MMP act inh RFP: -4
- Env fusion inh: 11

O=[N+]([O-])c1ccc(NN=Cc2ccccc2)nc1
- MT1-MMP act inh: 0
- MT1-MMP act inh RFP: 0
- Env fusion inh: -110

CC(C(=O)NC1CCCC1)n1c(C2CCCC2)nc2ccccc21 (configuration not stated)
- MT1-MMP act inh: 3
- MT1-MMP act inh RFP: 4
- Env fusion inh: -12

CCCCn1nnnc1C1(C)CCC(=O)N1CCCn1ccnc1 (configuration not stated)
- MT1-MMP act inh: 1
- MT1-MMP act inh RFP: 5
- Env fusion inh: 12

C[C@@H](C(=O)Nc1cc(C(F)(F)F)ccc1N1CCOCC1)N1C(=O)C2CC=CCC2C1=O (some centres not stated)
- MT1-MMP act inh: -1
- MT1-MMP act inh RFP: -1
- Env fusion inh: 0

O=C1c2ccccc2C(=O)N1CCCn1c2ccc(Cl)cc2c2nc3ccccc3nc21
- MT1-MMP act inh: -1
- MT1-MMP act inh RFP: 6
- Env fusion inh: -7
